High-throughput results (PubChem BioAssay)
eIF4H inh – inhibitors of RNA binding by human eIF4H. eIF4H fluorescence polarization binding assay. inhibition, % at 35 µM. actives 0.94% (n = 290,000). AID 2012;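 active means 50% or more with normal probe brightness, or confirmed in later tests; about a fifth of its hits are not listed in these tables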;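 further: calls also rest on retests at 20 µM and on dose response follow-up; 0% = protein and probe with vehicle and 100% = probe without protein; strong numbers were not always called active; many hits fall short of the cut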
Rce1 inh – blocks yeast Ras-converting enzyme; Q03530; yeast membranes, quenched prenylated peptide cleavage fluorescence; calls only; actives 0.27% (n = 290,000); AID 2563;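 active means fall in fluorescence gain of 50% or more versus controls, with final raw signal at or below 3038400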;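 further: plate controls were neutral control wells for no effect and wells lacking membranes for full effect; tested at 10 µM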
PABP polyA inh – PABP-poly(A) binding inhibition; PABP-poly(A) RNA binding, fluorescence polarization; P11940; actives 1% (n = 290,000); inhibition, % at 35 µM;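 active means 50% or more with normal probe brightness, or confirmed in later tests; about a fifth of its hits are not listed in these tables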;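 further: calls also rest on retests at 20 µM and on dose response follow-up; controls were probe without protein and protein plus probe with vehicle; some compounds called inactive have numbers as strong as hits; many hits fall short of the cut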
Target sequence (P11940 whole entry, looked up): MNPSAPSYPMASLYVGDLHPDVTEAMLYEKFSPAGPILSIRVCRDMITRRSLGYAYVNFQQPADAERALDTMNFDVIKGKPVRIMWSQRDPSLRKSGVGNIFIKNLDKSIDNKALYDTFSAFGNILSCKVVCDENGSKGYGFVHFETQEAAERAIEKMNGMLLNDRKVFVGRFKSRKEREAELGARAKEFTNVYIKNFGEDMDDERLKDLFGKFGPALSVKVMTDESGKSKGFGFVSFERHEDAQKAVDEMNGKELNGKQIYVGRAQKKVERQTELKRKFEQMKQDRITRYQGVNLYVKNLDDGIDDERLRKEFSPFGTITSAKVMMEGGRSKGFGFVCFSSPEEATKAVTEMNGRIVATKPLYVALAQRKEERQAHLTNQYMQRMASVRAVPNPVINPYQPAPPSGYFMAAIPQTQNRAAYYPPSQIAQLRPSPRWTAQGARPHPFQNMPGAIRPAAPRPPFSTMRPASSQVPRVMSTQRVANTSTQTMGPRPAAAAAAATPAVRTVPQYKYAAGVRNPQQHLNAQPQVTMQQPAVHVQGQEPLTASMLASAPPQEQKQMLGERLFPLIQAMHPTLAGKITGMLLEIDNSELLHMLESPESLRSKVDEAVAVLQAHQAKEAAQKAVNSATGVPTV
MT1-MMP act inh – blocks activation of human MT1-MMP | P50281 | HT1080 RFP-PRO-GFP cells, GFP/RFP ratio fluorescence, overnight; percent of plate control window, DMSO zero | GFP/RFP ratio change, % at 20 µM | actives 0.061% (n = 360,000) | AID 651647;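 active means GFP/RFP ratio change of at least 30% with cell ATP level not reduced by more than half and red fluorescence within 50% of control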; further: strong numbers were not always called active
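Compound: 20 µM single dose, 1% DMSO / System: HT1080 RFP-PRO-GFP cells / Controls: DMSO and RFP-L50D-GFP cell wells / Read-out basis: GFP/RFP fluorescence ratio / Schedule: overnight compound exposure at 37 °C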
HIV Env fusion – HIV envelope-mediated fusion inhibition; HeLa-JRFL Env/CEM21 cell fusion, luciferase; inhibition, % at 12.3 µM; actives 1.1% (n = 360,000);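 active means mean replicate inhibition score of at least 50 and every replicate individually at or above 50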;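 further: 0% = plate neutral controls and 100% = maraviroc near 300 nM; one replicate is shown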
CSC inhib – blocks cancer stem cells. cancer stem cell-like cells viability, luminescence. inhibition, % at 7.5 µM. actives 1.1% (n = 300,000). AID 2717;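 active means mean at 75% or more and at least half the replicates too; tested in HMLE shEcad cells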;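 further: 0% = median of negative and 100% = median of positive control wells; the first replicate is given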
Yeast UUG start – modulators of start codon recognition fidelity in yeast. S. cerevisiae UUG-firefly luciferase reporter, luminescence/redox ratio. activity score, % at 18.7 µM. actives 0.13% (n = 350,000);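 active means replicate mean at a twofold rise or more, about +100% in these data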;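 further: firefly luciferase made from a UUG start codon reports start codon fidelity; reporter light over untreated wells divided by growth signal over untreated wells; some hits fall short of that in this replicate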
MT1-MMP act inh RFP – also measured in MT1-MMP act inh; calls as there; RFP signal change, %; measured here: RFP expression control read;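 0 = vehicle wells; hits needed this value within 50% of zero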
Starred values were filed as active, the others as inactive; i = inactive; / = not tested or not shown.

Preview (three entries):
1) O=C(CCN1C(=O)c2ccccc2C1=O)C1=NN[C@@H]2C(=O)N(c3ccc(F)cc3)C(=O)[C@H]12
2) Cc1csc(NC(=O)NCC2CCCC(CNC(=O)Nc3nc(C)cs3)C2)n1 (stereo unspecified)
3) Cc1ccc(CNC(=O)Cn2cnc3c(NCc4ccccc4)ncnc32)o1

assay / compound | 1 | 2 | 3
PABP polyA inh | 8 | 0 | /
Yeast UUG start | / | -5 | -13
HIV Env fusion | -5 | -4 | -42
MT1-MMP act inh | 0 | 1 | 0
MT1-MMP act inh RFP | 5 | -6 | -3
eIF4H inh | -9 | 1 | /
Rce1 inh | i | i | /
CSC inhib | 7 | 10 | /

All compounds of this part (from the top)
1) O=C(CCN1C(=O)c2ccccc2C1=O)C1=NN[C@@H]2C(=O)N(c3ccc(F)cc3)C(=O)[C@H]12
2) Cc1csc(NC(=O)NCC2CCCC(CNC(=O)Nc3nc(C)cs3)C2)n1 (stereo unspecified)
3) Cc1ccc(CNC(=O)Cn2cnc3c(NCc4ccccc4)ncnc32)o1
4) Cc1ccsc1C(=O)NNC(=O)c1cccc(S(=O)(=O)N2CCCC2)c1
5) NC(=O)Cn1c(=O)n(CCC(=O)NCCSCc2ccccc2)c(=O)c2ccccc21
6) Cc1cc(C)cc(C(=O)NC2CC(C)(C)NC(C)(C)C2)c1
7) COc1cc(/C(C)=N\NC(=O)CSc2nc3ccccc3n2C)ccc1O
8) O=C(O)C1CCCCN1C(=O)c1ccc(S(=O)(=O)N2CCCCCC2)cc1 (stereo unspecified)
9) NC(=O)Cn1cc(C(=O)c2cccs2)c2ccccc21
10) COc1cc(/C=C2\N=C(c3ccccc3)NNC2=O)cc(OC)c1OC

assay / compound | 1 | 2 | 3 | 4 | 5 | 6 | 7 | 8 | 9 | 10
PABP polyA inh | 8 | 0 | / | / | 1 | -1 | -3 | / | -6 | 4
Yeast UUG start | / | -5 | -13 | -4 | / | -4 | -17 | 2 | -12 | -1
HIV Env fusion | -5 | -4 | -42 | / | 13 | 2 | 1 | / | / | -126
MT1-MMP act inh | 0 | 1 | 0 | 0 | 1 | 3 | 0 | -1 | 1 | 4
MT1-MMP act inh RFP | 5 | -6 | -3 | 2 | 0 | 3 | 0 | 6 | 4 | -4
eIF4H inh | -9 | 1 | / | / | -8 | -6 | -6 | / | -4 | -10
Rce1 inh | i | i | / | / | i | i | i | / | i | i
CSC inhib | 7 | 10 | / | 0 | -12 | -8 | -3 | 4 | 6 | /

Quoted from above: entries 1 to 3
1) O=C(CCN1C(=O)c2ccccc2C1=O)C1=NN[C@@H]2C(=O)N(c3ccc(F)cc3)C(=O)[C@H]12
2) Cc1csc(NC(=O)NCC2CCCC(CNC(=O)Nc3nc(C)cs3)C2)n1 (stereo unspecified)
3) Cc1ccc(CNC(=O)Cn2cnc3c(NCc4ccccc4)ncnc32)o1

assay / compound | 1 | 2 | 3
PABP polyA inh | 8 | 0 | /
Yeast UUG start | / | -5 | -13
HIV Env fusion | -5 | -4 | -42
MT1-MMP act inh | 0 | 1 | 0
MT1-MMP act inh RFP | 5 | -6 | -3
eIF4H inh | -9 | 1 | /
Rce1 inh | i | i | /
CSC inhib | 7 | 10 | /

Returning to the listing with the 2 entries that preceded the break.
9) NC(=O)Cn1cc(C(=O)c2cccs2)c2ccccc21
10) COc1cc(/C=C2\N=C(c3ccccc3)NNC2=O)cc(OC)c1OC
11) CCn1cc(C(=O)NCc2cccnc2)c(=O)c2cc(F)c(N3CCN(C(=O)c4ccco4)CC3)cc21
12) Cc1cccn2c(=O)c(/C=N/O)c(NCc3ccccc3)nc12
13) COC(=O)CC1COc2ccccc2N1S(=O)(=O)c1ccc(OC)cc1 (stereo unspecified)
14) COc1ccc(S(=O)(=O)N(C(=O)c2ccncc2)c2ccc(OC(=O)c3ccncc3)cc2)cc1
15) COC(=O)c1sccc1NC(=O)CCC1CCCC1
16) CS(=O)(=O)N(CC(=O)NCc1ccco1)c1cc(C(F)(F)F)ccc1Cl
17) O=C(CN(Cc1ccccc1)S(=O)(=O)c1ccccc1)N1CCOCC1
18) Cc1c(OC(C)C(=O)NCC2CCC(C(=O)O)CC2)ccc2c(-c3ccccc3)cc(=O)oc12 (stereo unspecified)
19) Cc1ccc(C2(c3ccc(C)cc3)NC(=O)N(Cc3c(C)noc3C)C2=O)cc1
20) Cc1cc(N2C(=O)C3CC=CCC3C2=O)cc(C)c1Br (stereo unspecified)

assay / compound | 9 | 10 | 11 | 12 | 13 | 14 | 15 | 16 | 17 | 18 | 19 | 20
PABP polyA inh | -6 | 4 | -4 | 8 | -5 | 4 | -2 | 3 | -8 | 4 | -3 | 3
Yeast UUG start | -12 | -1 | / | / | 16 | 1 | -12 | -16 | -12 | -8 | 2 | -11
HIV Env fusion | / | -126 | / | -6 | -17 | -63 | / | / | -42 | / | / | /
MT1-MMP act inh | 1 | 4 | -4 | 9 | -11 | 10 | -14 | 3 | -1 | 4 | -2 | 1
MT1-MMP act inh RFP | 4 | -4 | -10 | -1 | -17 | 7 | -5 | 3 | 2 | -6 | -1 | 0
eIF4H inh | -4 | -10 | 2 | 3 | -3 | -4 | -3 | -2 | -5 | -4 | -8 | -7
Rce1 inh | i | i | i | i | i | i | i | i | i | i | i | i
CSC inhib | 6 | / | 5 | 4 | 47 | -2 | 0 | -7 | -6 | -7 | 5 | -4

Three entries out of the list above, ordered by the value under HIV Env fusion, largest number first.
# | molecule | Yeast UUG start | HIV Env fusion | MT1-MMP act inh | MT1-MMP act inh RFP | Rce1 inh
13 | COC(=O)CC1COc2ccccc2N1S(=O)(=O)c1ccc(OC)cc1 (stereo unspecified) | 16 | -17 | -11 | -17 | i
17 | O=C(CN(Cc1ccccc1)S(=O)(=O)c1ccccc1)N1CCOCC1 | -12 | -42 | -1 | 2 | i
14 | COc1ccc(S(=O)(=O)N(C(=O)c2ccncc2)c2ccc(OC(=O)c3ccncc3)cc2)cc1 | 1 | -63 | 10 | 7 | i

Later entries.
21) COc1ccc(Br)cc1C(=O)NC(=S)Nc1ccc2[nH]c(=O)[nH]c2c1
22) C/C(=N/Nc1ncc(C(F)(F)F)cc1Cl)c1ccncc1
23) C=CCN(c1ccccc1)S(=O)(=O)c1cccc(C(=O)Nc2cccc(C)n2)c1
24) COc1cc(NC(=O)Cn2cnc3c(SC)nc(N)nc32)cc(OC)c1OC
25) Cc1cccc2nc(CSc3nncn3-c3ccccc3)cn12
26) COc1ccc(NC(=O)C2CCN(c3nc(C)nc4c3CCC4)CC2)cc1
27) CCCS(=O)(=O)NC(=O)C1(C)CCCN(C(=O)c2ccc(C(F)(F)F)cc2)C1 (stereo unspecified)
28) CN(C)S(=O)(=O)c1ccc(C(=O)Nc2ccc3nc(N4CCOCC4)sc3c2)cc1
29) COc1ccc(CNC(=O)Cn2cnc3c(NCc4ccccc4)ncnc32)cc1
30) O=C(NCC(c1ccco1)N1CCCC1)c1ccc(S(=O)(=O)Nc2ccccc2Cl)cc1 (stereo unspecified)

assay / compound | 21 | 22 | 23 | 24 | 25 | 26 | 27 | 28 | 29 | 30
PABP polyA inh | -4 | -10 | / | / | 11 | -3 | / | / | / | /
Yeast UUG start | -15 | -5 | / | -5 | -18 | -35 | 7 | -16 | -7 | 0
HIV Env fusion | -1 | 1 | 8 | -8 | / | 54* | -1 | -25 | -35 | /
MT1-MMP act inh | 2 | 0 | -7 | 0 | 5 | 1 | -1 | 0 | -2 | 5
MT1-MMP act inh RFP | 2 | -2 | -10 | 1 | 6 | -15 | 5 | 3 | -9 | -9
eIF4H inh | 9 | -5 | / | / | -2 | -7 | / | / | / | /
Rce1 inh | i | i | i | / | i | i | / | / | / | /
CSC inhib | / | -9 | -12 | 10 | / | -7 | / | -10 | / | 6

31) O=C(O)COc1ccc(F)cc1Br
32) CCC(C)[C@H](NC(=O)NCc1cccs1)C(=O)OC (stereo partly specified)
33) Cc1ccc(N2CC(C(=O)NC(C)CCc3ccccc3)CC2=O)cc1 (stereo unspecified)
34) CCOC(=O)C1CCN(C(=O)COc2ccc(Br)cc2C)CC1
35) O=S(=O)(c1ccc(NC(=S)NN=C(Cc2ccccc2)Cc2ccccc2)cc1)N1CCOCC1
36) Cc1c(NC(=O)COC(=O)c2ccc(O)cc2)c(=O)n(-c2ccccc2)n1C

assay / compound | 31 | 32 | 33 | 34 | 35 | 36
PABP polyA inh | -3 | -6 | 1 | -3 | 6 | /
Yeast UUG start | / | -38 | 3 | -11 | / | -12
HIV Env fusion | -21 | / | -20 | -7 | 18 | -211
MT1-MMP act inh | 0 | -2 | 1 | 1 | 0 | 1
MT1-MMP act inh RFP | 8 | -4 | 2 | 2 | 0 | 5
eIF4H inh | -3 | 7 | -6 | -2 | -10 | /
Rce1 inh | i | i | i | i | i | /
CSC inhib | 13 | -16 | -10 | 3 | -5 | /
